NPYLR7 ag: agonists of mosquito NPYLR7 receptor, primary screen, cell-based, Aedes aegypti, calcium fluorescence, mosquito biting behavior; HEK293T NPYLR7/Galpha15, GCaMP6s calcium fluorescence; AID 1259423, 2018; Aedes aegypti neuropeptide Y-like receptor 7 (NPYLR7); activation, % at 10 µM; 270,000 tested, 0.15% active; in the data active = activation above about 40%;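 note: 0% = vehicle and 100% = reference agonist at the receptor; some compounds past the cut are filed as inactive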
NPYLR7 ag max-min: further read-out of NPYLR7 ag, marked with its call; activation, %; measured here: Max-Min RFU normalised activation; some inactives read as strong as hits;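 span of the calcium signal over five minutes; 0% = vehicle and 100% = native peptide agonist; compound fluorescence can raise it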
The depositor's hits bear a star; & = joins results of further samples. Not all compounds are listed, so the mix of outcomes need not match the whole.

Every second line gives: NPYLR7 ag	NPYLR7 ag max-min
> Cc1ccccc1Cn1ccnc1CN(C(=O)c1ccco1)C1CC1
    27	34
> Cc1ccccc1S(=O)(=O)NC(=O)C1(C)CCN1C(=O)Cc1ccc(C(C)C)cc1 (stereo not drawn)
    5	4
> COc1cc(OC)nc(Nc2nc(C(N)Cc3ccc(N)cc3)cs2)n1 (stereo not drawn)
    -7	-10
> COc1ccc(C(=O)NC(C(=O)NC2CC2)C2CCN(C(=O)c3cccc(Br)c3)CC2)cc1 (stereo not drawn)
    3	1
> COc1cccc(-n2c3c(c(=S)[nH]c2=O)CCC3)c1
    1	-2
> CC(=O)c1c[nH]c(C(=O)O)c1
    -2	-5
> CCC1COCCN1C(=O)Nc1cc(C(C)(C)C)on1 (stereo not drawn)
    10	11
> COc1ccccc1C1CC(c2cccc(F)c2)=NN1C(=O)CN1CCOCC1 (stereo not drawn)
    1	1
> COc1ccc(CCNC(=O)C(C2CCCC2)N2CCN(C(=O)c3ccc(Cl)cc3Cl)CC2)cc1 (stereo not drawn)
    1	8
> CCC(=O)NCc1ccccc1-c1cc(N)nc2[nH]ccc12
    -2	-6
> O=C(Nc1cc2c(cc1Br)OCCO2)c1cccc(Br)c1
    1	0
> O=C(c1cccc(OC(F)F)c1)N1CCOC(COCc2ccccc2F)C1 (stereo not drawn)
    4	1
> O=C(NC1CC(=O)N(C2CCCCCC2)C1)c1ccc2n[nH]nc2c1 (stereo not drawn)
    11	8
> O=c1c2ccccc2[nH]c2ncccc12
    4	1
> CC(C)(C)NC(=O)NC1CCN(c2ccccc2C(=O)NC2CCCc3ccccc32)CC1 (stereo not drawn)
    -2	8
> CN(C)S(=O)(=O)c1ccc(S(=O)(=O)Nc2ccc(OC(F)F)cc2)cc1
    2&1	2&1
> CC(=O)Nc1ccc(Nc2nc(-c3c(C)nc4cc(C)ccn34)cs2)cc1
    -15	-20
> O=C(CCC(=O)N1CCc2ccccc2C1)N1CCOCC1
    0	-2
> O=S(=O)(c1ccc(Cl)c(C(F)(F)F)c1)N1CCN(CCc2ccncc2)CC1
    12	13
> CC(C)N=c1ccccn1C(=O)c1cccc(NC(=O)C(C)(C)C)c1
    -7	-8
> COCCn1c(=NC(=O)c2ccc3ncsc3c2)sc2ccccc21
    4	4
> Cc1nc2ccccc2nc1N1CCN(C(=O)c2ccc(N(C)C)cc2)CC1
    17	18
> CC(OC(=O)c1cc(=O)[nH]c2ccccc12)c1ccccc1Cl (stereo not drawn)
    5	2
> COc1ccc(CC(=O)NNC(=O)[C@@H]2CCCC[C@@H]2C(=O)O)cc1
    -4	-8
> Cc1ccc(NS(=O)(=O)c2ccc(C)c(N)c2)c(C)c1
    6	1
> CCCNC(=O)N(CC(=O)N1CCc2sccc2C1COc1ccccc1OC)CC1CCCO1 (stereo not drawn)
    -2	-2
> COc1ccc(Cl)cc1NC(=O)CN1C(=O)c2ccccc2C1=O
    -12	-17
> Cc1ccc2c(=O)cc(C(=O)Nc3ccc(Cl)cc3)oc2c1C
    -14	-18
> CN(C)C(=O)CNc1ccccc1NC12CC3CC(CC(C3)C1)C2
    -5	-7
> CCOC(=O)CN1CCC(Cc2n[nH]c(=O)n2CC)CC1
    -4	-6
> CCCN(Cc1nccn1C)c1nc(CCN)nc2ccccc12
    1	1
> CC(N)=C(C#N)C(=O)CSc1nncn1C
    -1	0
> Cc1ccc2c(c1)c(CNC(=O)[C@H](N)CC(C)C)nn2C
    22	17
> c1cc2c(cc1-c1csc(NCC3CCC3)n1)OCCCO2
    7	4
> CCN(CC)Cc1c(O)cc(C)c2c1O/C(=C\c1cc3ccccc3o1)C2=O
    70*	62*
> COc1ccc(C(=O)N(Cc2cccc(OS(=O)(=O)c3cccc(C(F)(F)F)c3)c2)Cc2ccco2)cc1
    -6	-7
> Cc1ccsc1C(O)c1nnc(Nc2ccccc2)s1 (stereo not drawn)
    0	6
> Cc1cc(NC(=O)C(C)SCc2ccc(F)c3cccnc23)on1 (stereo not drawn)
    4	0
> O=C(NCCCC(=O)N1CCN(Cc2cccc(-c3noc(-c4cccnc4)n3)c2)CC1)OCc1ccccc1
    24	16
> COC(=O)C1CN(C(=O)Nc2cccnc2)c2ccccc21 (stereo not drawn)
    16	6
> COc1ccc2c(-c3cc4cc(Cl)ccc4o3)cc(=O)oc2c1
    5	3
> CCN(C1CCN(c2ccccc2)C1=O)S(=O)(=O)C(C)COC (stereo not drawn)
    5	1
> CNc1nc(Cl)nc(Oc2ccc(=O)n(C)n2)n1
    -4	-6
> OC1(c2ccc(OC(F)F)cc2)CSC(=Nc2cccnc2)N1C1CC1 (stereo not drawn)
    3	10
> COc1ccccc1-c1cc(CN2CCN(S(=O)(=O)c3ccc(F)c(Cl)c3)CC2)on1
    5	5
> COC(=O)c1ccccc1NC(=O)Cn1nc([N+](=O)[O-])c(Cl)c1C
    13	12
> CCOC(=O)c1nn(-c2ccccc2)c(=O)cc1N1CCN(c2ccc(OC)cc2)CC1
    6	0
> Cc1c(O)cccc1C(=O)N1CCc2c(nc(-c3cccnc3)[nH]c2=O)C1
    5	2
> CCOC(=O)C1CCCN(C(=O)c2ccc(Nc3c(Oc4cccc(C)c4C)cnn(-c4ccccc4)c3=O)cc2)C1 (stereo not drawn)
    9	9
> c1cc2c(cc1CN1CCN(C3CCCN(C4CCSCC4)C3)CC1)OCO2 (stereo not drawn)
    6	1
> CC(C)(C)CC(=O)N1CC(=O)N(Cc2ccccc2)CC(O)C1 (stereo not drawn)
    3	5
> Clc1ccc(-n2cccc2CN2CCCC(Nc3ccc4c(c3)OCO4)C2)nc1 (stereo not drawn)
    11	4
> CC(C)S(=O)(=O)Oc1ccc(CN(CC2CCCO2)C(=O)c2ccccc2F)cc1 (stereo not drawn)
    -1	7
> COc1ccc(-c2ccc(CCC(=O)NCc3ncccc3C)n2-c2ccc(SC)cc2)cc1
    1	4
> O=C(NCCN1CCc2ccccc21)c1cn(CCC2CCCCN2)nn1 (stereo not drawn)
    1	2
> Cc1ccc2cccc(OCCCOc3ccc(C)c(C)c3)c2n1
    -2	-5
> O=C(Cn1c(=O)oc2ccccc21)N1CCC2(CC1)C(=O)Nc1ccccc12
    17	12
> Cc1cccc2c1N1C(=O)c3c(C(=O)O)cccc3C1CC2C (stereo not drawn)
    -5	-8
> Cc1ccc(NC(=O)N2CCCC2C(=O)Nc2nnc(-c3ccc(F)cc3)s2)cc1Cl (stereo not drawn)
    -2	3
> COCC(=O)N1CCCC(N(C)CCc2ccc(OC)c(OC)c2)C1 (stereo not drawn)
    2	3

Next entries follow:
Every second line gives: NPYLR7 ag	NPYLR7 ag max-min
> COc1cccc(-c2ccccc2NC(=O)C2CCN(C/C(C)=C/c3ccccc3)CC2)c1
    10	0
> CCC(C(=O)NCC1CCCCN1Cc1ccccc1)N(CC)CC (stereo not drawn)
    3	3
> CC1(C(=O)NCc2ccccn2)CCN1CCc1ccccc1 (stereo not drawn)
    -6	-7
> COc1ccc(CNC(=O)CCC(=O)N2CCc3ccccc3C2)c(OC)c1
    -5	-9
> CCCc1[nH]n(-c2ccc(Cl)cc2)c(=O)c1C1=C([n+]2ccccc2)C(=O)N(CCC)C1=O
    -6	4
> CCOC1CC(NCc2cccc(O)c2)C12CCCCC2 (stereo not drawn)
    3	2
> CCc1ccc(C(=O)NC(C)Cc2cc(C)nn2-c2ccccc2)o1 (stereo not drawn)
    1	-1
> FC(F)(F)c1cc(-c2ccco2)nc(N2CCCCC2)n1
    -1	-4
> O=C(NCCC(=O)N1CCOC(COCc2cccc(C(F)(F)F)c2)C1)OCc1ccccc1 (stereo not drawn)
    -5	-1
> O=C(C1=C(O)C(=O)N(CCCn2ccnc2)C1c1ccc(F)cc1)c1ccco1 (stereo not drawn)
    -1	-1
> Cc1ccc(-c2[nH]ncc2CN2CCCC2c2nccs2)cc1C (stereo not drawn)
    1	-2
> Cc1cc(=O)[nH]c(-n2nc(-c3cccs3)cc2NC(=O)CCC2CCCCC2)n1
    -1	-3
> CC(C)(C)Nc1c(C2CCCCC2)nc2ccc(Br)cn12
    21	18
> O=C(CSc1nnc(-c2ccc3c(c2)OCO3)o1)c1ccc2c(c1)OCCO2
    33	36
> N#Cc1c(N)nc(-c2ccccc2)nc1C(F)(F)F
    1	-1
> CCOc1cccc(/C=N\NC(=O)CSc2nnc(-c3ccc(Cl)cc3)n2-c2ccccc2)c1O
    -5	-10
> CN(Cc1cn[nH]c1-c1ccc(F)cc1)C(=O)c1cnc2ccccc2n1
    2	4
> CCCc1nc(N[C@H]2CCc3ccccc32)c2cnn(C)c2n1
    0	-2
> O=C(CN1C(=O)C2C3CCC(C3)C2C1=O)N1CCN(Cc2ccccc2)CC1 (stereo not drawn)
    9	7
> COc1ccc(-c2cn(-c3ccccc3)c3[n+]2CCCS3)cc1
    3	2
> Cc1ccc(Cn2nnc3c(SCc4ccc([N+](=O)[O-])cc4)ncnc32)cc1
    3	25
> Cn1c(=O)[nH]c(=O)c2c1nc(CN1CCOCC1)n2CC(N)=O
    0	27
> Cc1cccc(S(=O)(=O)NC(=O)C2(C)CCN2C(=O)Cc2ccccc2Cl)c1 (stereo not drawn)
    5	0
> COc1cc(S(=O)(=O)n2cc(C)nc2-c2ccccc2)c(C)cc1C
    1	0
> CCCc1nnc2c(C(=O)NC3CCN(C(=O)OCC)CC3)cccn12
    -7	-11
> CC1(C(=O)Nc2ccc3nc[nH]c3c2)CCN1C(=O)CCc1ccccc1 (stereo not drawn)
    2	0
> COc1cc(C)c(NS(=O)(=O)c2cc3c(cc2C)OCC(=O)N3)c(C)c1
    -6	-6
> CC1CCN(Cc2nnnn2CC(=O)N(Cc2nccn2C)C(C)C)CC1
    4	1
> CCOC(=O)Cn1c(=NC(=O)c2ccccc2[N+](=O)[O-])sc2cc3c(cc21)OCO3
    0	-4
> Clc1ccc(Oc2cc(N3CCCC3)ncn2)cc1
    -11	-1

Some values from the list.
NPYLR7 ag max-min result of `COCCn1c(=NC(=O)c2ccc3ncsc3c2)sc2ccccc21` stands at 4
NPYLR7 ag result of `CCCN(Cc1nccn1C)c1nc(CCN)nc2ccccc12` stands at 1

New compounds follow:
Every second line gives: NPYLR7 ag	NPYLR7 ag max-min
> CCOc1ccc(-c2ccc(=O)n(CCNC(=O)C(C)Oc3ccccc3F)n2)cc1 (stereo not drawn)
    3	2
> CN1CCN(Cc2cnn(C)c2C2CC2)CC12CCN(C(=O)C1CC1)CC2
    2	0
> CCc1nnnn1Cc1csc(N(C)C(C)=O)n1
    0	1
> CC1CC(C)CN(S(=O)(=O)NCc2nccs2)C1 (stereo not drawn)
    5	0
> Cc1cc(C)cc(-c2ccc(-n3cncc3C(=O)NCc3ccc(F)c(F)c3)cc2)c1
    -2	5
> Cc1ccccc1-c1nnc(NC(=O)c2ccccc2F)s1
    -6	-7
> CCOC(=O)OC(C)OC1=C(C(=O)Nc2ccccn2)N(C)S(=O)(=O)c2ccccc21 (stereo not drawn)
    2&-2	8&-7
> Cc1ccc(C(=O)NCCC2=CCCN(C3C=CCCC3)C2)cc1F (stereo not drawn)
    1	8
> COC(=O)C1=C(C)N=c2sc(=Cc3ccc(C)o3)c(=O)n2C1c1cccs1 (stereo not drawn)
    -1	-4
> COc1ccc(C2CC(c3ccccc3F)=NN2C(=O)CN2CCc3ccccc3C2)c(OC)c1 (stereo not drawn)
    -7	-2
> CCCCn1c(=O)c2c(nc3n2CCCN3c2ccccc2)n(C)c1=O
    2	-5
> O=C(Nc1cccc(C2SCC(=O)N2c2ccc3c(c2)OCO3)c1)c1ccc(F)cc1 (stereo not drawn)
    5	13
> CCCNC(=O)Cn1cc(OC)c(=O)cc1CSc1nnnn1C
    -2	-9
> CCOc1ccccc1/C=C1\N=C(c2cccc(C)c2)OC1=O
    -2	-5
> C=C(C)Cn1c(SCC(=O)N/N=C\c2cc(OC)c(OC)c(OC)c2)nnc1-c1ccc([N+](=O)[O-])cc1
    -6	4
> COc1ccc(NC(=O)c2c(C)oc(C)c2-c2ccc(C)cc2)cc1Cl
    8	4
> CCOc1ccccc1C1c2[nH]c3ccccc3c2CCN1C(=O)c1nc2ncccn2n1 (stereo not drawn)
    1&-4	-5&-7
> Cc1cc(=O)[nH]c(NN=Cc2cc(C)c(C=NNc3nc(C)cc(=O)[nH]3)cc2C)n1
    3	2
> CCOC(=O)C1CCCN(C(=O)c2nn(-c3ccc(Cl)cc3)c(=O)n(Cc3ccc(C(F)(F)F)cc3)c2=O)C1 (stereo not drawn)
    14	11
> O=C(Cn1nnnc1-c1ccccc1F)Nc1ccc(N2CCOCC2)cc1
    0	-2
> O=C1C2CC=CCC2C(=O)N1CCc1ccccc1Cl (stereo not drawn)
    1	1
> CC(C)(C)CC(=O)N(Cc1ccccc1OS(C)(=O)=O)C1CC1
    -10	-4
> COc1cc(=O)n(-c2ccccc2C)nc1C(=O)Nc1ccccc1F
    5	4
> Oc1ccc(/C=C/c2ccc(/C=C/c3ccc(O)cc3)c(Br)c2)cc1
    2	-14

Arranged by number of heavy atoms (low to high): some entries from above.
Every second line gives: NPYLR7 ag	NPYLR7 ag max-min
> CC(=O)c1c[nH]c(C(=O)O)c1
    -2	-5
> Cc1ccsc1C(O)c1nnc(Nc2ccccc2)s1 (stereo not drawn)
    0	6
> CCN(C1CCN(c2ccccc2)C1=O)S(=O)(=O)C(C)COC (stereo not drawn)
    5	1
> CCCN(Cc1nccn1C)c1nc(CCN)nc2ccccc12
    1	1
> COc1cc(OC)nc(Nc2nc(C(N)Cc3ccc(N)cc3)cs2)n1 (stereo not drawn)
    -7	-10
> CCOc1ccccc1C1c2[nH]c3ccccc3c2CCN1C(=O)c1nc2ncccn2n1 (stereo not drawn)
    1&-4	-5&-7
> CCOC(=O)C1CCCN(C(=O)c2ccc(Nc3c(Oc4cccc(C)c4C)cnn(-c4ccccc4)c3=O)cc2)C1 (stereo not drawn)
    9	9

Screens from PubChem.
